# Assay outcomes deposited in PubChem by several laboratories.
# PrP UTR inh = inhibition of PrP 5' UTR reporter expression; inhibition, % (concentration not given with the values); 340,000 tested, 0.35% active; AID 488862, 2010; cell-based PrP 5' UTR mRNA reporter, plate reader;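 active means every replicate at 50% or more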;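 further: 0 = median of the neutral control wells; tested in H4 reporter cells; numbers are from one replicate; inactives centre near -14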
# Sa ugtP lethal = growth inhibition of ugtP-null S. aureus, primary screen, RN4220 ugtP deletion, OD600; 16 h; some inactives read as strong as hits; 330,000 tested, 0.54% active; AID 1259309, 2017; growth inhibition, % (concentration not given with the values);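 active means z-score under -3 and OD600 up to 0.15 on both plates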;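 further: plate controls were untreated wells for no effect and antibiotic for full effect; wells of about 80 µL received 100 nL stock; the first replicate is given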
# Bead autofluor = compound fluorescence in toxin protease inhibitor counterscreen; compound autofluorescence counterscreen, microsphere flow cytometry; active compounds read high; 360,000 tested, 3.1% active; fluorescence intensity (no concentration beside the values);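 active means at least 3 SD above the mean of all compounds, about 16000 in these data; inconclusive means too few beads counted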;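 further: 100 nL of 1 mM stock went into each well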
# Mtb hypoxia inh = PubChem AID 1159583 | M. tuberculosis hypoxia-regulated fluorescent reporter, fluorescence | fluorescence inhibition, % (no concentration beside the values) | 300,000 tested, 0.1% active;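 active means 35 to 45% if threefold the growth effect, above 45% if 1.5-fold the growth effect; inactive means the rest, general growth blockers included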;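 further: wells of about 50 µL received 100 nL stock; 0% = vehicle wells and 100% = reference inhibitor wells; whole bacteria with a GFP reporter of the hypoxia response; strong numbers were not always called active; many hits fall short of the cut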
# BJeLR lethal = MLPCN primary cell-based screen for lethality selective to Ras in HRASV12 cells; BJeLR (HRASV12) viability, CellTiter-Glo ATP luminescence, 48 h; reference of the scale not given here; inhibition, % (concentration not given with the values); 300,000 tested, 0.17% active; AID 1554, 2009;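 active means replicate mean above 50%; inconclusive means above 50% but judged a plate artefact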;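 further: 50 nL library stock added to about 25 µL; numbers are from one replicate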
# Sa RN4220 lethal = growth inhibition of S. aureus RN4220, primary screen, OD600; 16 h; inhibition, % (concentration not given with the values); 330,000 tested, 0.33% active; AID 1259311, 2017;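 active means z-score of -3 or lower and OD600 up to 0.18 on both plates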;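 further: plate controls were untreated cells for no effect and reference antibiotic for full effect; stock transfer was 100 nL into about 80 µL; one replicate is shown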
# Mtb hypoxia inh growth = recorded beside Mtb hypoxia inh, whose call it bears; growth inhibition, %; measured here: M. tuberculosis growth (absorbance);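 0% = vehicle and 100% = reference antibiotic; read after six days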
# An asterisk follows results filed as active; ? = inconclusive; / = no result given.
# Sequence of screens: Sa RN4220 lethal	Mtb hypoxia inh	BJeLR lethal	Bead autofluor	Mtb hypoxia inh growth	Sa ugtP lethal	PrP UTR inh
> Cc1[nH]c(C)c(S(=O)(=O)Nc2ccc(F)cc2Cl)c1C(=O)N1CCCC1
    1.6	6.7	7.1	5872	5.2	-0.9	-9.9
> COc1ccc(-c2[nH]ncc2CN2CCCOc3c(cccc3OC)C2)c(OC)c1
    -0.6	3.4	-2.1	2296	-6.4	0.8	-11.1
> Cc1nc2sc(C(c3ccc(F)cc3)N3CCN(C(=O)c4ccco4)CC3)c(O)n2n1 (configuration not stated)
    -2.2	-2.4	-6.1	1967	5.6	7.5	2.8
> COc1ccc(/C=C2/C(=O)N=C(N)N2C)cc1OC
    /	/	-7.0	3429	/	/	-22.4
> O=C(NCCNC(=O)c1ccccc1)c1ccccc1
    4.0	7.0	-7.1	4755	2.5	-0.8	1.0
> Cc1cccc2c(CCN)c[nH]c12
    10.4	0.2	9.4	4427	-3.5	5.4	-6.9
> Cc1c(NC(=O)C(C)Oc2cccc(Cl)c2)c(=O)n(-c2ccccc2)n1C (configuration not stated)
    1.4	9.2	-9.8	6970	-5.4	6.5	-13.0
> CC(C)c1nnc(NC(=O)CCC(=O)NC2CCCCCC2)s1
    2.5	6.7	4.0	5547	9.9	7.5	-11.1
> Cc1cccc(C)c1NC(=O)[C@@]1(CC(=O)O)CC(/C=C/c2ccccc2)=NO1
    3.1	-0.2	2.9	3825	-4.9	10.1	/
> CCCn1nc2cc(C(=O)NCc3ccccc3)ccc2c1OCC
    3.9	16.6	3.3	4051	10.0	3.3	-16.6
> CNC(=S)NN=C(C)c1ccc2c(c1)OCCO2
    5.4	-2.1	/	/	1.7	-3.6	/
> COCCNC(=O)c1cccc(S(=O)(=O)N2CC3(C)CC2CC(C)(C)C3)c1 (configuration not stated)
    4.0	1.8	-10.9	4602	1.5	0.6	-11.0
> CC(=NNC(=O)c1nnn(-c2nonc2N)c1CN(C)c1ccccc1)c1cccs1
    2.0	3.0	/	/	2.0	-5.8	/
> CN(CCc1ccccc1)C(=O)c1ccc(NC(=O)Cc2ccc(NC(=O)C3CCCN(S(=O)(=O)c4cccc([N+](=O)[O-])c4)C3)cc2)cc1 (configuration not stated)
    3.7	0.1	/	3039	3.4	4.8	-11.9
> Cc1ccc(CNS(=O)(=O)c2ccc(F)c(F)c2)n1C
    3.8	9.2	-3.9	3519	3.6	-5.6	-8.7
> Cc1c(Br)c([N+](=O)[O-])nn1C(C)C(=O)NCc1ccco1 (configuration not stated)
    3.2	14.3	2.8	2516	9.3	15.2	-22.7
> Cc1ccc(S(=O)(=O)N2CCCC2C(=O)O)s1 (configuration not stated)
    1.7	-6.1	1.2	24047*	-0.8	-5.1	2.1
> CCOc1ccc(CCN2C(=O)C3C4C=CC(C4)C3C2=O)cc1OCC (configuration not stated)
    0.7	/	-12.0	4380	/	13.4	-15.4
> COc1ccc(CCNC(=O)CSc2nnnn2-c2ccc(OC)c(OC)c2)cc1OC
    8.3	10.6	7.2	4973	3.6	6.6	-17.5
> Cc1ccc2nc(SCC(=O)Nc3cccc(S(N)(=O)=O)c3)[nH]c2c1
    0.8	-5.7	7.9	4698	9.7	-4.4	-22.1
> Cc1cc(C(=O)CN2C(=O)C(=O)N(C)C2=O)c(C)n1-c1cccc(S(=O)(=O)N2CCOCC2)c1
    5.1	14.1	-16.9	4489	3.1	-1.4	-25.5
> O=C(CSc1ccccn1)NN=C/C=C/c1ccccc1
    1.0	-8.7	/	/	10.1	-0.8	/
> COc1ccccc1NC(=O)Cn1nnc2sc3c(c2c1=O)CC(C)(C)OC3
    1.0	-2.2	-0.2	3843	3.1	-1.0	/
> COc1cccc(NC(=O)c2cc(-c3cccnc3)nc3c(Cl)cccc23)c1
    3.5	4.5	-1.3	15951	-1.7	16.4	-29.3
> CC(C)C(NS(=O)(=O)c1ccccc1F)C(=O)OCC(=O)NCc1ccco1 (configuration not stated)
    1.0	4.5	/	6858	1.0	3.5	-6.1
> O=C(CCCN=C1NS(=O)(=O)c2ccccc21)OCc1ccccc1
    0.7	13.5	3.5	5753	3.8	10.7	-15.9
> Cc1cc(=O)oc2cc(OCC(O)Cn3ccnc3)ccc12 (configuration not stated)
    2.7	-9.8	13.4	3731	-1.0	-0.5	6.4
> CC(C)(C)C1CCc2onc(C(=O)O)c2C1 (configuration not stated)
    7.5	12.1	-2.7	4019	6.8	1.0	-45.2
> CC(C)C(=O)Nc1cccc(NC(=O)c2cccc([N+](=O)[O-])c2)c1
    9.9	5.8	-2.5	5664	5.7	-9.2	-25.2
> CN(C(=O)COc1cc(=O)n(C)c2ccccc12)c1ccc(Br)cc1
    -1.0	/	-8.4	6138	/	-2.1	-7.4

# Given in CSV form: part of the list above
canonical_smiles,Sa RN4220 lethal,Mtb hypoxia inh,BJeLR lethal,Bead autofluor,Mtb hypoxia inh growth,Sa ugtP lethal,PrP UTR inh
Cc1ccc(CNS(=O)(=O)c2ccc(F)c(F)c2)n1C,3.8,9.2,-3.9,3519,3.6,-5.6,-8.7
Cc1c(Br)c([N+](=O)[O-])nn1C(C)C(=O)NCc1ccco1 (configuration not stated),3.2,14.3,2.8,2516,9.3,15.2,-22.7
Cc1ccc(S(=O)(=O)N2CCCC2C(=O)O)s1 (configuration not stated),1.7,-6.1,1.2,24047*,-0.8,-5.1,2.1
CCOc1ccc(CCN2C(=O)C3C4C=CC(C4)C3C2=O)cc1OCC (configuration not stated),0.7,/,-12.0,4380,/,13.4,-15.4

# Later entries:
# Sequence of screens: Sa RN4220 lethal	Mtb hypoxia inh	BJeLR lethal	Bead autofluor	Mtb hypoxia inh growth	Sa ugtP lethal	PrP UTR inh
> CN(CC(O)COC(c1ccccc1)c1ccccc1)C1CCCCC1 (configuration not stated)
    -3.2	3.2	8.0	4359	3.0	1.2	-13.7
> O=C(NCc1ccccc1)C(c1ccccc1)N(C(=O)c1csnn1)c1ccc(F)cc1 (configuration not stated)
    3.8	13.4	-16.6	5650	5.8	2.6	-25.2
> O=C(CNc1cccc(F)c1)Nc1cccc(S(=O)(=O)N2CCCCC2)c1
    2.2	2.0	/	?	0.0	4.6	-29.9
> CN1C(=O)C(O)(C2CCCCCC2=O)c2ccccc21 (configuration not stated)
    -0.3	-0.6	-10.8	3045	1.5	-3.3	16.9
> COc1ccc(/C=C/C(=O)Nc2ccc(C34CC5CC(CC(O)(C5)C3)C4)cc2)cc1OC
    -1.8	-13.1	-6.8	2080	-2.4	-12.7	-23.4
> CCOc1ccc(C(C)=O)cc1Cn1nc(C(=O)O)c2ccccc2c1=O
    2.8	-0.5	-0.5	9299	-2.7	-6.2	-1.7
> COc1ccc2c(c1)CCC1C2CC[C@]2(C)C(C(C)=O)CC12 (some centres not stated)
    3.7	17.8	/	/	4.0	48.7	/
> CCN(CC)C(=S)Nc1c(C)n(C)n(-c2ccccc2)c1=O
    3.8	17.8	5.5	4476	0.2	8.1	-12.1
> CCN1CCN(CCC(=O)Nc2cc(OC)cc(OC)c2)CC1
    1.1	8.1	14.6	4288	-3.0	-1.2	-13.9
> COc1cccc(C(=O)Nc2ccccc2NC(=O)c2cccc(OC)c2)c1
    3.3	3.3	-7.5	2869	2.3	-6.0	0.6
> COc1ccc(OC)c(-c2nnc3n2N=C(c2ccc(OC)c(OC)c2)CS3)c1
    11.4	1.3	/	2859	8.2	6.6	56.5*
> OCCOCCn1c(C(CO)Nc2nc(-c3ccc(Cl)cc3)cs2)nc2ccccc21 (configuration not stated)
    4.1	0.9	-12.6	4467	0.8	11.6	30.3
> Cc1[nH]nc2c1C(c1ccsc1)C1=C(CC(C)(C)CC1=O)N2 (configuration not stated)
    6.7	2.8	7.4	3114	-0.8	7.9	-13.8
> COc1ccccc1C(CNC(=O)c1cccc(S(=O)(=O)N2c3ccccc3CC2C)c1)N(C)C (configuration not stated)
    -1.4	-6.9	/	3875	10.9	-2.9	11.1
> O=C(NCCN1CCOCC1)c1ccc2ccccc2c1
    8.6	-2.4	-2.0	2810	13.6	0.1	-4.2
> COc1cc(OC)cc(-c2c(-c3ccc(F)cc3)c3cc(-c4ccc5cc[nH]c5c4)ccc3n2C)c1
    5.6	18.1	/	3997	8.2	-6.1	-12.7
> CC[C@@H](Nc1ncnc2c1oc1ccccc12)C(=O)O
    -1.3	4.4	-1.5	4227	-4.9	3.5	-3.1
> Cc1cc(C)n(-c2ccc(C(=O)N3CC(C)OC(C)C3)cc2)n1 (configuration not stated)
    4.8	13.5	-7.2	3277	6.9	15.7	-11.0
> COc1cc(/C=N/NC(=O)c2ccc(CN3c4cccc5cccc(c45)S3(=O)=O)cc2)cc(OC)c1O
    /	/	-0.3	3510	/	/	-5.6
> COc1cccc(/C=C2\SC(=S)N(CCC(=O)N3CCCCC3CCO)C2=O)c1 (configuration not stated)
    -1.9	12.6	-1.0	4187	10.4	-13.2	4.0
> Cc1cccc(N2CC(C(=O)Nc3ccccc3N3CCCC3)CC2=O)c1C (configuration not stated)
    0.8	4.7	-8.6	5631	-0.5	0.6	-6.8
> N#Cc1nc(NCC(F)F)nc(Nc2cc(F)cc(F)c2)n1
    -0.1	0.2	/	3723	5.9	2.3	-4.2
> COc1ccc(NC(C)C(=O)N/N=C/c2ccccc2OCc2ccc(Br)cc2)cc1 (configuration not stated)
    /	/	5.4	4640	/	/	-36.2
> O=C(COc1ccc2ccccc2c1)NN=CC1CC=CCC1 (configuration not stated)
    1.4	-2.1	/	/	-1.7	-1.5	/
> COc1ccccc1N(CC(=O)NCc1ccc2c(c1)OCO2)C(=O)CCC(=O)Nc1nccs1
    -3.2	-5.4	-13.2	4308	0.1	0.2	-23.7
> O=S(=O)(c1ccc2ccccc2c1)N(CC(O)CN1CCOCC1)c1ccccc1 (configuration not stated)
    -1.9	/	-0.5	3517	/	-10.2	4.2
> O=c1cnnc(Nc2ccc(F)cc2)[nH]1
    -3.1	-3.2	13.7	2589	-2.0	0.3	-22.5
> O=C(c1ccc(S(=O)(=O)NCc2ccco2)cc1)N1CCN(c2ccccc2)CC1
    -0.4	-3.3	/	2792	-0.8	-4.6	10.3
> O=[N+]([O-])c1ccc(F)cc1Oc1nc(-c2cccnc2)nc2ccccc12
    -7.2	-6.7	20.1	3992	4.2	-7.0	-16.8
> Cc1c(N(C)S(=O)(=O)c2ccc(Cl)c(C(=O)NCC(C)(C)N3CCOCC3)c2)c(=O)n(-c2ccccc2)n1C
    -0.5	9.9	/	3532	12.3	5.3	-15.3

# Complete entries, looked up by structure. Order of screens: Sa RN4220 lethal, Mtb hypoxia inh, BJeLR lethal, Bead autofluor, Mtb hypoxia inh growth, Sa ugtP lethal, PrP UTR inh
# Results for COc1ccc(NC(C)C(=O)N/N=C/c2ccccc2OCc2ccc(Br)cc2)cc1 (configuration not stated) = /, /, 5.4, 4640, /, /, -36.2
# Results for CCN(CC)C(=S)Nc1c(C)n(C)n(-c2ccccc2)c1=O = 3.8, 17.8, 5.5, 4476, 0.2, 8.1, -12.1

# Additional records
# Sequence of screens: Sa RN4220 lethal	Mtb hypoxia inh	BJeLR lethal	Bead autofluor	Mtb hypoxia inh growth	Sa ugtP lethal	PrP UTR inh
> CCN(CC)Cc1c(C(=O)N/N=C/c2ccncc2)nnn1-c1nonc1N
    /	/	0.4	3423	/	/	-2.0
> O=C(Nc1ccc2c(c1)CCC2)C1COc2ccccc2O1 (configuration not stated)
    1.8	2.4	/	23530*	1.7	3.2	-75.5
> CCC(C)NC(=O)c1c(-c2cc(Cl)c(OC)c(Cl)c2)noc1C (configuration not stated)
    -2.5	/	-2.7	5420	/	-6.5	13.3
> CC(C)Cc1cc(CN2CCC(CO)(Cc3cccc(C(F)(F)F)c3)CC2)[nH]n1
    1.0	16.9	-1.0	4517	16.4	0.3	23.8
> Cc1ccc(-c2[nH]nc3c2C(c2ccc(OC(=O)N4CCOCC4)cc2)C(C#N)=C(N)O3)cc1 (configuration not stated)
    12.0	11.1	8.7	16622*	4.5	-6.6	-9.8
> O=C(CN1C(=O)c2cccnc2C1=O)c1ccccc1
    7.3	1.5	2.7	20963*	12.9	1.0	-9.3
> COc1ccccc1NC(=O)CSc1nnc(COc2ccccc2C)o1
    1.4	3.8	-8.1	6100	1.6	3.9	-16.4
> Cc1ccc(C(C)NC(=O)C2CCCC2)cc1C (configuration not stated)
    1.7	13.2	15.5	3999	11.9	-1.5	-3.7
> CC1CN(C(=O)COC(=O)c2cc(=O)c3ccccc3o2)CC(C)O1 (configuration not stated)
    0.5	5.4	-2.6	3601	8.1	2.4	-7.7
> O=C(Nc1ccn(Cc2ccccc2)n1)c1ccc(F)cc1
    1.3	/	0.6	5190	/	1.8	-57.0
